NPYLR7 ag: mosquito NPYLR7 agonism | HEK293T NPYLR7/Galpha15, GCaMP6s calcium fluorescence | activation, % at 10 µM | 0.15% of 270,000 active; in the data active = activation above about 40%;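 also: 0% = vehicle and 100% = reference agonist at the receptor; some compounds past the cut are filed as inactive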
NPYLR7 ag max-min: recorded beside NPYLR7 ag, whose call it bears; activation, %; measured here: Max-Min RFU normalised activation; some inactives read as strong as hits;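 span of the calcium signal over five minutes; 0% = vehicle and 100% = native peptide agonist; compound fluorescence can raise it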
An asterisk follows results filed as active; & = joins results of further samples. Not all compounds are listed. The share of hits here may be higher or lower than overall.

SMILES	NPYLR7 ag	NPYLR7 ag max-min
O=C(c1cccs1)N1CCN(CC(OCc2c(F)cccc2F)c2ccc(Cl)cc2)CC1 (stereo not drawn)	-2	8
Cc1cc([N+](=O)[O-])cc(S(=O)(=O)NNC(=O)c2cc3c(s2)CCCCC3)c1C	-5	-6
COc1ccc(CCC2CCN(Cn3nc(C)n(C)c3=S)CC2)cc1	13	16
COc1ccc(-c2nc3scc(CCNS(=O)(=O)N(C)C)n3n2)cc1	-7	-4
Cn1nccc1-c1nnc(N)o1	3	0
O=C(Nc1cccc(-n2cccn2)c1)C1CCCN(CCCn2cccn2)C1 (stereo not drawn)	10	6
Cc1ccc(OC(C)(C)C(=O)N2CCC(C(=O)NCC#N)(c3ccccc3)CC2)c2c1CCC2	8	4
O=C1CCC(CCC(=O)N2CCN(c3ncc4ccccc4n3)CC2)(Cc2ccc(Cl)cc2)N1 (stereo not drawn)	15	8
O=C(O)C=Cc1ccc(Br)s1	20	10
CCS(=O)(=O)N1CCN(C(C)C)CC1	1	5
COc1cc(Br)c(CCNC(=O)COc2ccccc2)cc1OC	0	7
Cn1cc(N2CCCC(Nc3ccc4c(c3)CCCO4)C2=O)cn1 (stereo not drawn)	-25	-24
COc1ccccc1-n1c(=O)[nH]c2c(C(N)=O)nc(C3CCCCC3)nc21	0	-2
COC(=O)c1ccc(C2CC(=O)NCCN2CC2CC2)cc1 (stereo not drawn)	18	17
COc1cc(CN(C)Cc2nc(C)c(C)o2)c(SC)cc1OC	2	10
CN(Cc1cccc(C(N)=O)c1)C(=O)CC1OCCc2ccsc21 (stereo not drawn)	6	0
CCc1ccc(Cn2cnc(-c3ccccc3)c2-c2cnc(OC)nc2)nc1	-1	-1
CC(=O)NCC(=O)N1CCN(c2nccc(Oc3cccc(C)c3)n2)CC1	1	0
COC(=O)c1cc(OC)c(OC)cc1NCC(=O)Nc1sc(C)c(C)c1C(=O)OC	-2	-3
COc1ccc(NC(=O)NCCNc2cc(-n3cccn3)nc(C)n2)c(OC)c1	-9	-13

A second format for part of the listing above:
SMILES | NPYLR7 ag | NPYLR7 ag max-min
CCS(=O)(=O)N1CCN(C(C)C)CC1 | 1 | 5
COc1cc(CN(C)Cc2nc(C)c(C)o2)c(SC)cc1OC | 2 | 10

The list goes on:
SMILES	NPYLR7 ag	NPYLR7 ag max-min
CC(C)CCN1CCCn2cccc2C1c1cccc(Cl)c1 (stereo not drawn)	9	6
COc1cccc(C(=O)CSc2nnc(NC(=O)Cc3cccs3)s2)c1	1	7
Cc1ccc(C(=O)NCCc2cc3c(C)ccc(C)c3[nH]c2=O)cc1C	1	8
O=C(CC1CC1)NCC1CCN(Cc2ccc(F)c(Cl)c2)C1 (stereo not drawn)	2	2
O=C(c1cc(C2CC2)[nH]n1)N1CCCCC1c1cccnc1 (stereo not drawn)	1	-2
O=C(CSc1nnc(CCn2ccc(=O)[nH]c2=O)o1)Nc1ccccc1	-2	-3
Cn1c(=O)n(Cc2ccc(Cl)cc2Cl)c(=O)c2c1nc1n2CCCN1Cc1ccco1	11	11
O=C(Cn1cnc2c(nnn2Cc2ccc(F)cc2)c1=O)c1ccccc1	3	6
COc1cccc2c(=O)n(CC(=O)N3CCOCC3)ccc12	3	1
Cc1cc(CNC2CCN(C)C2=O)ccc1Br (stereo not drawn)	0&10	-2&10
Cc1noc(C)c1C(=O)OCc1nc(-c2cccs2)no1	13	11
Cc1ccc(C)c2[nH]c(=O)c(CCNC(=O)CCC3CCCC3)cc12	-2	10
CC(=O)NC12CC3CC(C1)CC(C(=O)NCCSCc1ccc(C)cc1)(C3)C2	2	-1
Oc1ccc(C=NN=CC2=C(N3CCOCC3)C(=Cc3ccccc3)CC2)c(O)c1	6	4
Cc1ccc(F)cc1-n1c(Cc2ccc(O)cc2)n[nH]c1=O	3	0
Cc1n[nH]c(C)c1CNC(=O)[C@H]1C[C@@H](C(=O)O)N(C)[C@H]1c1ccccc1F	2	1
O=C(Cc1noc(CCc2ccco2)n1)NCc1ccccc1	10	6
CNC(=O)c1cc(-c2cnc3ccccc3c2)ccc1Cl	5	4
CCCN(Cc1cccnc1)Cc1nc2ccccc2n1C(C)C	-4	23
CCCc1nc(-c2ccc(S(N)(=O)=O)cc2)cs1	-3	-4
COc1ccc(Nc2nccc3[nH]c(-c4ccccc4)nc23)cc1OC	-6	-13
CC(C)NC(=O)c1cn(C2CCN(c3ncncc3C(C)C)CC2)nn1	3	0
COc1cc(/C=N\NC(=O)CSc2nnc(-c3ccc(Cl)cc3)n2-c2ccccc2)cc(OC)c1OC	-15	-10
CCOC(=O)CN(C1CCCC1)[C@@H]1C[C@@H]2CO[C@H](C(C)C)C[C@@H]2C1	2	14
Cc1ccc(NC(=O)Cn2ncn3nc4c(c3c2=O)CCCC4)cc1F	-3	-5
COCCn1cc(NC(=O)N2CCCC2)c2ccccc21	15	5
C=CCCC(O)CN(CCN1CCOCC1)Cc1ccc(OC)c(OC)c1 (stereo not drawn)	2	6
CC(C)Nc1cccc(CNC(=O)C2CCCc3ccccc32)c1 (stereo not drawn)	8	10
COCC(=O)N1CCSC12C(=O)N(Cc1ccc(C)cc1)c1ccccc12 (stereo not drawn)	8	12
O=C(Cn1cnc2c(nnn2Cc2ccc(Cl)cc2)c1=O)c1ccccc1	8	6
c1ccc(NC2CCCN(Cc3cccn3-c3nccs3)C2)cc1 (stereo not drawn)	0	-3
O=C(c1csc(-c2ccccc2)n1)N1CCC(N2CCCCC2)CC1	2	9
CCC1SC(c2ccccc2Cl)N(CCN(C)C(=O)Nc2ccccc2OC)C1=O (stereo not drawn)	22	29
CCn1ccnc1Cn1cnc(-c2ccccc2)c1-c1c(OC)cccc1OC	5	3
Cc1nc2cc(C(F)(F)F)ccc2n1C1CCN(C(=O)c2ccc(N(C)C)cc2)CC1	7	8
NC(=O)c1cc(NC(=O)CCc2ccc(S(N)(=O)=O)cc2)cc(C(N)=O)c1	3	2
COc1cc2nc(CSc3nnnn3C)[nH]c(=O)c2cc1OC	14	23
COC(=O)c1ccc(-c2noc(CN(C)Cc3ccc4nccnc4c3)n2)cc1	1	-2
CC1(C)COCCN1C(=O)c1cc(F)c(Cl)nc1Cl	-2	-6
CCc1cccc(C)c1NC(=O)N1CCN(C(C)=O)CC1	-5	-6
COCCN(Cc1[nH]c2ccccc2c1C)CC1CCCN(C2Cc3ccccc3C2)C1 (stereo not drawn)	6	-9
O=C(Nc1ccc(=O)n2c1[C@@H]1C[C@@H](CN(C(=O)COc3ccccc3)C1)C2)C1CCCCC1	-7	-15
CCn1ncnc1CN1CCOC(Cc2cccc3ccccc23)C1 (stereo not drawn)	-5	-6
CN(C)c1ccc(/C=C2\N=C(c3ccc(Cl)c(Cl)c3)OC2=O)cc1	-2	-6
Cn1c(=O)c2c(nc3n2CC(C(C)(C)C)=NN3CCc2ccccc2)n(C)c1=O	-3	-5
COc1ccc(CNC(=O)C2CC=CCC2C(=O)N2CCN(c3ccccn3)CC2)c(OC)c1 (stereo not drawn)	-4	-11
O=P(O)(C=Cc1ccccc1)C=Cc1ccccc1	2	1
CSCCCn1c(=O)[nH]c(=O)c2c(N)c(C(C)=O)sc21	3	4
c1ccc(Cc2nc(Cn3ccnc3-c3cccnc3)cs2)cc1	-1	-9
CCOC(=O)c1nn(-c2ccc(F)cc2)c(=O)cc1N1CCN(CCO)CC1	8	2
O=C(Cc1cccs1)NC1(C(=O)NC2CCCC2)CCCCC1	3	-1
Clc1ccc(-c2nnc(C34CC5CC(CC(C5)C3)C4)o2)cn1	3	3
CCCCc1ccc(S(=O)(=O)NC(=O)C2(C)CCN2C(=O)Cc2ccccc2)cc1 (stereo not drawn)	3	1
COC(=O)CCc1c(C)nn(-c2ccc(C(=O)NC(C)CC(C)C)cc2)c1C (stereo not drawn)	-10	-12
COC(=O)c1cccc(CC2(C)C(=O)Nc3ccc(-c4ccccc4)cc32)c1 (stereo not drawn)	3	-1
COC(=O)[C@@H]1C[C@@H](O)CN1CC(=O)Nc1ccc(C)cc1Cl	8	4
COC(=O)c1ccc(CSc2nnc(Cn3ccc(=O)[nH]c3=O)o2)o1	-8	-3
CN=C1SC(CC(=O)NC)C(=O)N1C (stereo not drawn)	1	-2
COCCN(CC1CCN(Cc2ccccc2F)CC1)C(=O)c1cn2cc(C)ccc2n1	11	11
O=C(CCNS(=O)(=O)c1ccc(Cl)cc1)N(Cc1ccc(F)cc1)C1CC1	1	1

In another format: results already given
SMILES | NPYLR7 ag | NPYLR7 ag max-min
CC(=O)NC12CC3CC(C1)CC(C(=O)NCCSCc1ccc(C)cc1)(C3)C2 | 2 | -1
Oc1ccc(C=NN=CC2=C(N3CCOCC3)C(=Cc3ccccc3)CC2)c(O)c1 | 6 | 4
Cc1ccc(F)cc1-n1c(Cc2ccc(O)cc2)n[nH]c1=O | 3 | 0
Cc1n[nH]c(C)c1CNC(=O)[C@H]1C[C@@H](C(=O)O)N(C)[C@H]1c1ccccc1F | 2 | 1
O=C(Cc1noc(CCc2ccco2)n1)NCc1ccccc1 | 10 | 6
CNC(=O)c1cc(-c2cnc3ccccc3c2)ccc1Cl | 5 | 4
CCCN(Cc1cccnc1)Cc1nc2ccccc2n1C(C)C | -4 | 23
CCCc1nc(-c2ccc(S(N)(=O)=O)cc2)cs1 | -3 | -4
COc1ccc(Nc2nccc3[nH]c(-c4ccccc4)nc23)cc1OC | -6 | -13
CC(C)NC(=O)c1cn(C2CCN(c3ncncc3C(C)C)CC2)nn1 | 3 | 0
COc1cc(/C=N\NC(=O)CSc2nnc(-c3ccc(Cl)cc3)n2-c2ccccc2)cc(OC)c1OC | -15 | -10
CCOC(=O)CN(C1CCCC1)[C@@H]1C[C@@H]2CO[C@H](C(C)C)C[C@@H]2C1 | 2 | 14
Cc1ccc(NC(=O)Cn2ncn3nc4c(c3c2=O)CCCC4)cc1F | -3 | -5
COCCn1cc(NC(=O)N2CCCC2)c2ccccc21 | 15 | 5
C=CCCC(O)CN(CCN1CCOCC1)Cc1ccc(OC)c(OC)c1 (stereo not drawn) | 2 | 6
CC(C)Nc1cccc(CNC(=O)C2CCCc3ccccc32)c1 (stereo not drawn) | 8 | 10

Continuation:
SMILES	NPYLR7 ag	NPYLR7 ag max-min
COc1ccc2c(c1)C(C(=O)Nc1ccc(C(=O)O)cc1)=CC(C)(C)CO2	8	17
CCCc1cnc(C)nc1N1CCCC(c2nnc3ccccn23)C1 (stereo not drawn)	-4	-10
CN1CCN(c2ncccc2CNC(=O)[C@@H](O)Cc2ccccc2)CC1	3	3
CC(NC1CCc2ccccc21)C(=O)Nc1ccc(F)cc1F (stereo not drawn)	0	0
CSc1ccccc1NC(=O)NCc1cc(C)no1	2	8
COc1cc(S(=O)(=O)NC(C)(C)CC(C)(C)C)ccc1F	-3	3
CCc1ccccc1NC(=O)CN(C)c1nc2c(cnn2C)c(=O)[nH]1	-7	-13
O=C(Nc1ccccc1)N1CCN(C(C(=O)N2CCCC2)C2CCCC2)CC1 (stereo not drawn)	-10	-5
CC(NC(=O)CSCC#N)c1ccccc1Oc1ccccc1 (stereo not drawn)	15	12
CCC1CN(C(=O)c2ccc(NCCn3cccn3)nc2)CCN1C(C)C (stereo not drawn)	2	-4
O=C(NCCC1COc2ccccc2O1)c1ccc(N2CCCNCC2)nc1 (stereo not drawn)	5	3
O=C(c1ccccc1)N1N=C(c2cccs2)CC1c1ccc2nccnc2c1 (stereo not drawn)	-1	19
CCOC(=O)c1c(N)c2cc([N+](=O)[O-])cnc2n1C	-7	-15
CC(C)(Oc1ccc(Cl)cc1)C(=O)Nc1c2c(nn1C(C)(C)C)CSC2	-2	-8
O=C1C2CCCCN2C(=O)c2ccccc2N1CC(=O)N1CCCCC1c1nccs1 (stereo not drawn)	0	18
Cc1cc2nc(CN(C)Cc3cnc(S(C)(=O)=O)n3CC(C)C)[nH]c2cc1C	9	3
O=C(CN1CCN(C(=O)c2cn(-c3ccccc3)nc2-c2ccccc2)CC1)NC1CC1	1	5
CCc1ccc(CCC(=O)N2CCN(c3ccc(S(=O)(=O)N4CCOCC4)cn3)CC2)cc1	6	3
Cc1cccc(C(=O)N(Cc2cc(NC(=O)c3ccccc3Cl)ccc2N(C)C)C(C)c2ccccc2)c1 (stereo not drawn)	3	14
Clc1ccc2sc(SCc3c[nH]c4ccccc34)nc2c1	0	-3
Cc1ccc(C)c(CSc2ncc(CO)n2CC(N)=O)c1	9	5
O=C(c1ccc(=O)[nH]c1)N1CCOC(C(F)(F)F)C1 (stereo not drawn)	-9	-12
O=C(CCC(=O)OCc1ccc(Cl)cc1)Nc1ccc(Cl)cc1	3	5
Cc1ccc(/C=C/C(=O)NCc2ccc(CN3CCOCC3)cc2)c(C)c1	9	5
COc1cc(NS(=O)(=O)c2ccccc2)ccc1N1CCCC1=O	10	14
Cc1ccc2nc(C)c(NC(=O)c3ccc(F)cc3F)c(=O)n2c1	4	1
CCCn1c(C)c(C)n2c3c(=O)n(Cc4cc(C)ccc4C)c(=O)n(C)c3nc12	3	2
COc1cccc(C(=O)Nc2cccc(-n3nc(OCc4ccc(F)cc4)nc3-c3cccc(OC)c3)c2)c1	-3	-1
CCn1nnc2c(NCCOC)ncnc21	-1	-2
Cc1cnccc1CN(C)Cc1ccc(-n2ccnc2)cc1	-14	-17
CCC(C(=O)N1CCN(c2ccc(NC(=O)COC)cn2)CC1)c1ccccc1 (stereo not drawn)	17	23
C=CCCC(O)CN(Cc1ccc(OC)cc1)C1CC1 (stereo not drawn)	-8	5
CCC(=O)Nc1cccc(-n2nc(OC)nc2-c2ccc(OC)cc2)c1	16	26
Cc1cc(Cl)cc2c(=O)n(CC3(CO)CCC3)cnc12	11	1
O=C1CSc2nc3ccccc3n21	10	8
O=C(NCCOc1ccccc1)c1c[nH]c(=O)c(Cl)c1	-3	-4
Cc1ccc(N2CCN(C(=O)NC(C)C)C(C)C2=O)cc1F (stereo not drawn)	12	29
Cc1nc2c(c3nc(C#N)c(C#N)nc3n2Cc2ccco2)c2nc3ccccc3n12	5	5
CCCCOC(=O)C1=C(C)NC(=O)NC1c1ccccc1Cl (stereo not drawn)	2	-4
COc1ccc(-c2nn(-c3ccccc3C)cc2CN2CCCC2c2nonc2C)cc1F (stereo not drawn)	1&27	0&24
COc1ccc(S(=O)(=O)CCCC(=O)N2CC(=O)Nc3ccccc32)cc1	6	1
O=C(CN1CCSC1=O)Nc1nc(-c2cccc(F)c2)cs1	-1	-2
O=C(O)c1cc(Cl)ccn1	-5	2

Bioassay records as filed in PubChem BioAssay.
